Bioassay records from PubChem BioAssay.
MITF inh: blocks MITF activity; inhibition, % (no concentration beside the values); 37,000 compounds, 0.28% hits; AID 2240; TRPM1 promoter luciferase, luminescence, 24 h;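 active = most replicates at 85% or more, or half of them and the mean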;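 also: human melanocyte line stably carrying TRPM1 promoter luciferase reporter; 0% = vehicle wells and 100% = a positive control; the first replicate is given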
YB-1 expression: YB-1 expression inhibition | U2OS, qRT-PCR YB-1 vs CDIP delta delta Cp, 16 h; hits give high values; zero = DMSO, each unit about twofold | delta delta Cp (YB-1 minus CDIP) (test concentration not listed) | 30,000 compounds, 0.37% hits;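 active = delta delta Cp rounded down to an integer at or above 3, about 3 SD of DMSO wells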;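 also: higher means less YB-1 transcript or more CDIP transcript relative to DMSO; stock transfer was 100 nL into about 100 µL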
Shh pathway inh: Sonic Hedgehog pathway inhibition | AID 2313 | Shh-LIGHT2 Gli-luciferase reporter, 30 h | inhibition, % (test concentration not listed) | 22,000 compounds, 2.1% hits;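 active = replicate mean of 65% or more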;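 also: pathway switched on by Shh-conditioned medium diluted 1 in 25 in low serum; 100 nL library stock added to about 40 µL; 0% = median of neutral wells and 100% = positive control level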
PD-1 reversal: reversal of PD-1 mediated T-cell inhibition; 29,000 tested, under 10 active; activation, % (no concentration beside the values); primary human CD4 T cells, PD-L1 beads, CellTiter-Glo 96 h; AID 2316;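 active = replicate mean of 50% or more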;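 also: 0% = median vehicle wells and 100% = positive control; 100 nL library stock added to about 50 µL; numbers are from one replicate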
Numbers without * were called inactive; . = not tested or not shown. A portion of the library; count on the stated rates, not on these rows.

Order of values: YB-1 expression | PD-1 reversal | Shh pathway inh | MITF inh
1. C[C@@H]1CN([C@H](C)CO)C(=O)c2cccc(NC(=O)c3ccncc3)c2O[C@H]1CN(C)C(=O)Nc1ccc(F)cc1
  -0.18 | 0.6 | -6 | -5
2. Cc1ccc(S(=O)(=O)Nc2ccc3c(c2)CC(=O)N([C@@H](C)CO)C[C@H](C)[C@H](CN(C)S(=O)(=O)c2cn(C)cn2)O3)cc1
  -0.047 | 0.6 | -15 | -21
3. COc1ccc(CN(C)C[C@H]2Oc3ccc(NS(=O)(=O)c4cccs4)cc3C(=O)N([C@H](C)CO)C[C@@H]2C)cc1
  -0.73 | . | . | 17
4. Cc1ccc(C)c(NC(=O)CSc2nnc(-c3ccncc3)n2-c2ccc(F)cc2)c1
  . | 0.8 | . | -4
5. Cn1nc(OC(C)(C)C(=O)Oc2ccc(Cl)cc2Cl)cc1C(F)(F)F
  -0.24 | -0.4 | 1 | -10
6. COc1c(S(=O)(=O)N2CCCN(S(=O)(=O)c3ccc(Cl)c(Cl)c3OC)CC2)ccc(Cl)c1Cl
  . | -1.4 | . | -20
7. C=C(C(=O)/C=C/C(C)(C)O)C1CC2O[C@]2(C)C(=O)[C@H]1OC(=O)CC(C)C (stereo partly drawn)
  0.042 | . | -25 | .
8. O=C(O)c1cc(=O)[nH]c2c(Cl)cccc12
  0.26 | 4.5 | 52 | 26
9. Cc1ccc(NC(=O)C2CC(Cl)=CCC2C(=O)O)c(Br)c1 (stereo not drawn)
  . | 0.9 | . | -5
10. COc1ccc(-c2nnn(CC(=O)Nc3ccc(OC)cc3OC)n2)cc1
  . | 0.0 | . | 2
11. O=[n+]1cc(-c2ccccc2)n([O-])c2c1CCCC2
  2.3 | 0.6 | -1 | 1
12. C[C@@H]1CN([C@@H](C)CO)C(=O)c2cc(NC(=O)C3CCCCC3)ccc2O[C@@H]1CN(C)Cc1ccc(Cl)c(Cl)c1
  -0.11 | 0.3 | 21 | 67
13. COc1ccc(NC(=O)N(C)C[C@H]2Oc3ccc(NC(=O)CCC(F)(F)F)cc3C(=O)N([C@@H](C)CO)C[C@H]2C)cc1
  -0.054 | -1.0 | -12 | -12
14. c1ccc(-c2nn3c(Cn4cnc5ccccc54)nnc3s2)cc1
  . | 0.1 | . | -3
15. CC(=O)NC1=NC(=O)/C(=C\c2cccs2)N1C
  -0.16 | 3.3 | 13 | -16
16. COC(=O)c1ccc(NC(=O)CN(c2ccc(Br)c(C)c2)S(C)(=O)=O)cc1
  . | -0.2 | . | -18
17. Cc1noc(C)c1NC(=O)Nc1ccc2c(c1)C(=O)N([C@H](C)CO)C[C@@H](C)[C@@H](CN(C)Cc1ccncc1)O2
  0.28 | . | -20 | 0
18. C[C@@H]1CN([C@H](C)CO)C(=O)c2cc(NC(=O)CCCN(C)C)ccc2O[C@H]1CN(C)C(=O)Nc1cccc2ccccc12
  0.04 | 0.8 | 39 | 5
19. CC(Oc1ccc(F)cc1)C(=O)Nc1sc2c(c1C(N)=O)CCCC2 (stereo not drawn)
  . | -8.7 | . | -18
20. Cc1nc(SCC(=O)Nc2ccc(Cl)cc2)c2ccsc2n1
  . | -2.0 | . | 35
21. C[C@H]1CN([C@@H](C)CO)C(=O)c2cc(N(C)C)ccc2O[C@@H]1CN(C)Cc1ccc(C(=O)Nc2ccccc2N)cc1
  -1.2 | -1.5 | . | 29
22. Cc1ccc(S(=O)(=O)Nc2cccc3c2O[C@H](CN(C)S(=O)(=O)c2ccc(Cl)cc2)[C@H](C)CN([C@H](C)CO)C3=O)cc1
  -0.18 | -1.5 | 12 | 5
23. CN1C(=O)c2ccc(NC(=O)Cn3c(=O)oc4ccccc43)cc2C1=O
  . | 2.0 | . | -5
24. C[C@@H]1CN([C@@H](C)CO)C(=O)Cc2cc(NC(=O)Nc3ccc(F)cc3)ccc2O[C@@H]1CN(C)S(=O)(=O)c1ccccc1
  -0.0075 | -1.4 | -29 | -13
25. CC(C)NC(=O)N(C)C[C@H]1Oc2c(NC(=O)Nc3cccc4ccccc34)cccc2C(=O)N([C@H](C)CO)C[C@H]1C
  -0.68 | -0.3 | -13 | 0
26. CC1=CC(O)C2/C=C/CCC3OC3(C)C(O)CC(=O)C23C(=O)NC(CC(C)C)C13 (stereo not drawn)
  0.13 | -14 | -8 | -15
27. Cc1cc(C)cc(NC(=O)CSc2nnc(-c3ccncc3)n2C)c1
  . | 1.4 | . | -2
28. C[C@@H]1CN([C@@H](C)CO)C(=O)c2cc(NC(=O)CCN3CCOCC3)ccc2O[C@@H]1CN(C)S(=O)(=O)c1cccs1
  -0.0037 | 0.0 | 15 | -6
29. C[C@@H]1CN([C@H](C)CO)C(=O)c2cccc(NS(=O)(=O)c3cn(C)cn3)c2O[C@H]1CN(C)C(=O)Nc1ccc(F)cc1
  0.011 | 0.5 | -38 | -5
30. C[C@H]1CN([C@@H](C)CO)C(=O)c2cccc(NC(=O)c3cnccn3)c2O[C@H]1CN(C)Cc1ccc(C(F)(F)F)cc1
  -0.29 | -1.9 | -8 | -32
31. C[C@H](CO)N1C[C@H](C)[C@H](CN(C)S(=O)(=O)c2ccc(Cl)cc2)Oc2ccc(NC(=O)c3ccncc3)cc2C1=O
  -0.48 | . | . | -4
32. O=C(Cn1c2ccccc2n2nc(-c3ccccc3)nc12)c1cccs1
  . | -5.2 | . | 2
33. C[C@@H]1CN([C@@H](C)CO)C(=O)c2cccc(NC(=O)Nc3ccc(F)cc3)c2O[C@@H]1CN(C)Cc1ccc(C(=O)Nc2ccccc2N)cc1
  -0.2 | -1.8 | . | 22
34. Cc1cc2c(c(=O)n1Cc1ccccn1)C(c1ccccc1)C(C#N)=C(N)O2 (stereo not drawn)
  0.3 | 0.0 | . | 0
35. CC(C)NC(=O)N(C)C[C@@H]1Oc2ccc(NC(=O)Nc3ccc4c(c3)OCO4)cc2C(=O)N([C@H](C)CO)C[C@H]1C
  0.8 | 1.6 | 32 | 0
36. Cc1ccc(S(=O)(=O)N(C)C[C@H]2Oc3ccc(NC(=O)Nc4ccc5c(c4)OCO5)cc3C(=O)N([C@H](C)CO)C[C@H]2C)cc1
  -0.054 | 0.4 | . | 10
37. O=C(CSc1ncn(-c2ccccc2)n1)Nc1ccc(Cl)cc1Cl
  . | 0.8 | . | -6
38. C[C@@H]1CN([C@@H](C)CO)C(=O)c2cc(NS(=O)(=O)c3ccccc3)ccc2O[C@H]1CN(C)C(=O)Nc1cccc2ccccc12
  0.59 | . | . | 9
39. C[C@@H]1CN([C@H](C)CO)C(=O)Cc2cc(NC(=O)Nc3ccc(C(F)(F)F)cc3)ccc2O[C@H]1CN(C)C
  0.071 | 3.2 | 21 | -15
40. CNC[C@H]1Oc2ccc(NS(=O)(=O)c3ccc(C)cc3)cc2C(=O)N([C@@H](C)CO)C[C@H]1C
  0.42 | 3.3 | . | 1
41. COc1ccc(NC(=O)Cn2cnc3sc4c(c3c2=O)CCC(C)C4)cc1 (stereo not drawn)
  . | -1.8 | . | 27
42. CNC[C@H]1Oc2ccc(NC(=O)Nc3ccc4c(c3)OCO4)cc2CC(=O)N([C@H](C)CO)C[C@H]1C
  2.3 | 0.6 | . | -2
43. C[C@@H]1CN([C@@H](C)CO)C(=O)c2cccc(NC(=O)Nc3ccc4c(c3)OCO4)c2O[C@H]1CN(C)S(=O)(=O)c1cccs1
  0.61 | . | 23 | 0
44. Cc1cccc(OCC(=O)Nc2cccc(-c3nc4cc(Cl)ccc4o3)c2C)c1
  . | -2.2 | . | 6
45. C=C1C(=O)O[C@@H]2[C@H]1[C@H](O)C[C@]1(C)[C@@H](O)CC=C(C)[C@@H]21
  -0.00055 | -3.5 | -11 | 8
46. C[C@@H]1CN([C@@H](C)CO)C(=O)c2cccc(NC(=O)Nc3ccc4c(c3)OCO4)c2O[C@@H]1CN(C)S(=O)(=O)c1ccc(Cl)cc1
  -0.56 | 1.7 | -55 | 1
47. Cc1cc2nc(Nc3nc4ccccc4c(=O)[nH]3)nc(C)c2cc1C
  . | -4.0 | . | -10
48. Cc1noc(C)c1S(=O)(=O)Nc1ccc2c(c1)C(=O)N([C@H](C)CO)C[C@H](C)[C@@H](CN(C)C(=O)NC1CCCCC1)OCCCC[C@@H](C)O2
  -0.67 | . | . | -4
49. CCOC(=O)c1cc[nH]c1C
  -0.05 | -0.6 | -33 | -19
50. Cc1c(NC(=O)CCN2C(=O)c3ccccc3C2=O)cccc1C(=O)O
  . | 3.2 | . | -9
51. COc1ccc(-c2cc(C(F)(F)F)n3nc(C(=O)NCCCN4CCOCC4)cc3n2)cc1OC
  . | -0.4 | . | -11
52. COc1cc(OC)c2c(=O)cc(-c3ccccc3)oc2c1
  0.25 | . | -34 | -55
53. COc1ccc(NC(=O)N(C)C[C@H]2Oc3ccc(N(C)C)cc3C(=O)N([C@H](C)CO)C[C@@H]2C)cc1
  -0.27 | 0.5 | -27 | 7
54. C[C@@H]1CN([C@@H](C)CO)C(=O)c2cccc(NC(=O)Nc3ccc(F)cc3)c2O[C@@H]1CN(C)S(=O)(=O)c1ccc(Cl)cc1
  -0.13 | 0.6 | 35 | 29
55. C[C@@H]1CCCCO[C@@H](CN(C)C(=O)Nc2ccc(F)cc2)[C@@H](C)CN([C@H](C)CO)C(=O)c2cc(NC(=O)CCC(F)(F)F)ccc2O1
  -0.03 | 0.2 | 2 | 5
56. C[C@H](CO)N1C[C@H](C)[C@@H](CN(C)Cc2ccc(-c3ccccc3)cc2)Oc2ccc(NC(=O)C3CCCCC3)cc2C1=O
  0.11 | -0.2 | . | -5
57. O=C(c1ccc(Cl)cc1)N1CCCc2ccccc21
  -0.21 | 0.5 | 7 | -16
58. CC(C)NC(=O)Nc1ccc2c(c1)C(=O)N([C@@H](C)CO)C[C@H](C)[C@H](CN(C)Cc1ccc(Oc3ccccc3)cc1)O2
  0.41 | -0.4 | 4 | -7
59. Cc1ccc(S(=O)(=O)N(C)C[C@@H]2Oc3c(NC(=O)c4ccc(-c5nccs5)cc4)cccc3C(=O)N([C@@H](C)CO)C[C@H]2C)cc1
  -0.09 | 0.2 | 21 | -4
60. FC(F)(F)C1(C(F)(F)F)N=C(c2ccccc2)NC(c2ccccc2)=N1
  . | -1.3 | -3 | 11

Continued (4 carried over from the part before).
Order of values: YB-1 expression | PD-1 reversal | Shh pathway inh | MITF inh
57. O=C(c1ccc(Cl)cc1)N1CCCc2ccccc21
  -0.21 | 0.5 | 7 | -16
58. CC(C)NC(=O)Nc1ccc2c(c1)C(=O)N([C@@H](C)CO)C[C@H](C)[C@H](CN(C)Cc1ccc(Oc3ccccc3)cc1)O2
  0.41 | -0.4 | 4 | -7
59. Cc1ccc(S(=O)(=O)N(C)C[C@@H]2Oc3c(NC(=O)c4ccc(-c5nccs5)cc4)cccc3C(=O)N([C@@H](C)CO)C[C@H]2C)cc1
  -0.09 | 0.2 | 21 | -4
60. FC(F)(F)C1(C(F)(F)F)N=C(c2ccccc2)NC(c2ccccc2)=N1
  . | -1.3 | -3 | 11
61. COc1cccc2cc(-c3nnc(SCC(=O)Nc4cccc(F)c4)n3C)oc12
  . | -1.4 | . | -13
62. C[C@@H]1CN([C@H](C)CO)C(=O)c2cccc(NS(C)(=O)=O)c2O[C@@H]1CN(C)C(=O)Nc1ccc2c(c1)OCO2
  -0.9 | 2.5 | -36 | -5
63. Cc1noc(C)c1S(=O)(=O)Nc1ccc2c(c1)C(=O)N([C@H](C)CO)C[C@H](C)[C@@H](CN(C)Cc1ccc(Cl)c(Cl)c1)O2
  -0.026 | -4.4 | . | -2
64. C[C@@H]1CCCCO[C@H](CN(C)C(=O)Nc2ccc(F)cc2)[C@@H](C)CN([C@H](C)CO)C(=O)c2cc(NC(=O)NC3CCCCC3)ccc2O1
  0.053 | . | -9 | -19
65. CNC(=S)N1N=C2c3ccccc3CCC2C1c1ccc(OC)cc1 (stereo not drawn)
  -0.087 | -2.1 | . | 18
66. COc1ccc(CN(C)C[C@@H]2Oc3c(NS(=O)(=O)c4cccs4)cccc3C(=O)N([C@H](C)CO)C[C@@H]2C)cc1
  -0.44 | 2.9 | 8 | -13
67. Cc1ccc(S(=O)(=O)N(C)C[C@@H]2Oc3ccc(NC(=O)Nc4cccc5ccccc45)cc3C(=O)N([C@H](C)CO)C[C@@H]2C)cc1
  0.067 | 0.6 | -18 | -4
68. Cc1ccc(S(=O)(=O)N(C)C[C@@H]2Oc3c(NC(=O)Nc4c(C)noc4C)cccc3C(=O)N([C@@H](C)CO)C[C@@H]2C)cc1
  0.099 | 0.9 | -33 | -5
69. COc1cccc(NC(=O)CSc2nncn2C)c1
  . | 0.5 | . | -20
70. CCOC(=O)c1c(-c2ccc(C)cc2)csc1NC(=O)c1cccc(OC(C)=O)c1
  . | 0.2 | . | -8
71. Cc1noc(C)c1NC(=O)Nc1cccc2c1O[C@H](CN(C)S(=O)(=O)c1cn(C)cn1)[C@H](C)CN([C@@H](C)CO)C2=O
  2.1 | 1.2 | -88 | -11
72. Cc1cc(O)c(C=O)c(O)c1C(=O)O
  -0.33 | . | -20 | 29
